Sa RN4220 lethal: growth inhibition of S. aureus RN4220, primary screen, OD600; 16 h; actives 0.33% (n = 330,000); AID 1259311, 2017; inhibition, % (concentration not given with the values);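 active means z-score of -3 or lower and OD600 up to 0.18 on both plates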;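 further: plate controls were untreated cells for no effect and reference antibiotic for full effect; stock transfer was 100 nL into about 80 µL; one replicate is shown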
Sa ugtP lethal: growth inhibition of ugtP-null S. aureus, primary screen, RN4220 ugtP deletion, OD600; AID 1259309, 2017; growth inhibition, % (test concentration not listed); 16 h; some inactives read as strong as hits; actives 0.54% (n = 330,000);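 active means z-score under -3 and OD600 up to 0.15 on both plates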;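 further: plate controls were untreated wells for no effect and antibiotic for full effect; wells of about 80 µL received 100 nL stock; the first replicate is given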
BJeLR lethal: MLPCN primary cell-based screen for lethality selective to Ras in HRASV12 cells. BJeLR (HRASV12) viability, CellTiter-Glo ATP luminescence, 48 h; reference of the scale not given here. inhibition, % (concentration not given with the values). actives 0.17% (n = 300,000). AID 1554, 2009;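 active means replicate mean above 50%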;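 further: 50 nL library stock added to about 25 µL; numbers are from one replicate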
PrP 5UTR inh: inhibition of PrP 5' UTR reporter expression; cell-based PrP 5' UTR mRNA reporter, plate reader; inhibition, % (concentration not given with the values); actives 0.35% (n = 340,000); AID 488862, 2010;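 active means every replicate at 50% or more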;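 further: 0 = median of the neutral control wells; tested in H4 reporter cells; numbers are from one replicate; inactives centre near -14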
Mtb hypoxia rep: PubChem AID 1159583; actives 0.1% (n = 300,000); fluorescence inhibition, % (test concentration not listed); M. tuberculosis hypoxia-regulated fluorescent reporter, fluorescence;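 active means 35 to 45% if threefold the growth effect, above 45% if 1.5-fold the growth effect; inactive means the rest, general growth blockers included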;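 further: wells of about 50 µL received 100 nL stock; 0% = vehicle wells and 100% = reference inhibitor wells; whole bacteria with a GFP reporter of the hypoxia response; strong numbers were not always called active; many hits fall short of the cut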
Autofluor counter: compound fluorescence in toxin protease inhibitor counterscreen; actives 3.1% (n = 360,000); fluorescence intensity (no concentration beside the values); compound autofluorescence counterscreen, microsphere flow cytometry; hits give high values; AID 624483;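 active means at least 3 SD above the mean of all compounds, about 16000 in these data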;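 further: 100 nL of 1 mM stock went into each well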
Mtb hypoxia rep growth: second read-out of Mtb hypoxia rep, no call of its own (marks repeat the call); growth inhibition, %; measured here: M. tuberculosis growth (absorbance);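 0% = vehicle and 100% = reference antibiotic; read after six days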
Starred values were filed as active, the others as inactive; nt = no result given; & = joins results of further samples.

entry | SMILES | Sa RN4220 lethal | Sa ugtP lethal | BJeLR lethal | PrP 5UTR inh | Mtb hypoxia rep | Mtb hypoxia rep growth | Autofluor counter
1 | O=C(NCc1nc(-c2ccc(C(F)(F)F)cc2)no1)Nc1ccc(F)cc1F | -2.1 | -6 | -1 | -18 | 8 | 12 | nt
2 | O=S(=O)(Nc1ccc(-c2cn3cccnc3n2)cc1)c1ccccc1 | 8.9 | -2 | 0 | -6 | 6 | 5 | 4795
3 | O[C@H]1C2CCC1C(N1CCCCC1)CC2 (stereo partly drawn) | nt | nt | 10 | -27 | nt | nt | 2925
4 | CN(C(=O)CSc1nc(-c2ccc(C(C)(C)C)cc2)c(C#N)c(=O)[nH]1)C1CCCCC1 | nt | nt | -6 | -10 | nt | nt | 5460
5 | Cc1ccc(Cn2c(CCNc3nc(-c4ccc(Cl)c([N+](=O)[O-])c4)cs3)nc3cc(C(=O)NCCCO)ccc32)cc1 | 1.5 | -9 | -8 | -10 | 2 | 9 | 4074
6 | Cn1c(NCc2ccco2)nc2c1c(=O)n(Cc1ccc(Cl)c(Cl)c1)c(=O)n2C | -14 | -23 | -5 | -7 | nt | nt | 4998
7 | O=C(c1ccco1)N1CCN(C(=O)c2cc(Cl)nc3ccccc23)CC1 | -0.8 | 3 | -4 | -4 | 4 | 6 | 5061
8 | O=C(Nc1cccc(S(=O)(=O)N2CCCCC2)c1)c1ccc(S(=O)(=O)C(F)F)cc1 | 5.0 | 6 | 3 | -10 | 10 | 18 | 3765
9 | CC(C)OC(=O)CSc1nc(N2CCOCC2)c2c(c1C#N)CC(C)(C)OC2 | -1.7 | 0 | -4 | -7 | 7 | 1 | 3841
10 | O=C(Cn1cnc2c(NC(=O)OCc3ccccc3)ncnc21)NCCN1CCOCC1 | 5.5 | 0 | nt | -19 | 10 | 4 | 3635
11 | CC(OC(=O)C1CC=CCC1C(N)=O)C(Cl)=C(Cl)Cl (stereo not drawn) | 7.8 | -4 | -1 | -27 | 6 | 7 | 22015*
12 | O=C(NCCN1CCCC1)c1cc(-c2ccncc2)nc2ccc(S(=O)(=O)N3CCOCC3)cc12 | 1.5 | -8 | -9 | -19 | 7 | 11 | 2820
13 | Cc1ccc(S(=O)(=O)NN2C(=O)/C(=C/c3cccc(F)c3)SC2=S)cc1 | 52 | 15 | -4 | -35 | -15 | 9 | 3840
14 | CCCOc1c(Br)cc(C(=O)OCC(=O)NC2CC2)cc1OC | 4.3 | 9 | 7 | -20 | -7 | -13 | 6478
15 | Cc1ccc(-n2cc(CNC(C)c3cnn(C)c3)c(-c3ccc(F)cc3)n2)cc1 (stereo not drawn) | -0.5 | 19 | 1 | -19 | 4 | -3 | 2264
16 | COc1ccc(C(=O)NN=Cc2ccc(OC)c(CN3CCN(c4ccc(F)cc4)CC3)c2)cc1 | 8.8 | -4 | nt | nt | 6 | 2 | nt
17 | CCOC(=O)CN1N=C(/C=C/c2ccc(C)cc2)CCC1=O | -0.7 | -2 | 3 | -13 | nt | nt | 2679
18 | C=CCSc1nc2sc3c(c2c(=O)n1-c1ccc(C)cc1)CCN(C)C3 | -1.3 | 34 | -1 | -13 | 0 | 1 | 4217
19 | Cc1cccc(/C=N/NC(=O)C(C)Nc2cccc3ccccc23)n1 (stereo not drawn) | nt | nt | -4 | -31 | nt | nt | 7633
20 | CCCCOc1ccc(NS(=O)(=O)c2ccc(-n3cnnn3)cc2)cc1 | 3.1 | 9 | 8 | -7 | 6 | 4 | 5629
21 | CC1SC(c2ccc(Cl)cc2Cl)NC1=O (stereo not drawn) | -1.3 | 3 | 4 | -5 | nt | nt | 4826
22 | COC(=O)Cc1ccc(NC(=S)NC2CC2)cc1 | 1.5 | -1 | 4 | -14 | 1 | -1 | 4367
23 | CN(CC(=O)O/N=C(\N)c1ccc([N+](=O)[O-])cc1)S(=O)(=O)c1ccccc1 | 0.1 | 0 | -22 | -5 | 1 | 8 | 11355
24 | C=CCN1C(=O)CSc2ccc(C(=O)OCC)cc21 | 3.3 | 9 | 4 | -9 | 0 | 6 | 10998
25 | CC1CN(C(C)CO)C(=O)c2cc(NC(=O)C3CC3)ccc2OC1CN(C)S(C)(=O)=O (stereo not drawn) | 5.9 | -1 | nt | nt | 18 | 13 | nt
26 | O=C(/C=C/c1cccc([N+](=O)[O-])c1)N1CCN(C(=O)c2ccco2)CC1 | nt | nt | -11 | -5 | nt | nt | 6626
27 | COCCCNC(=O)CN(c1cc(C(F)(F)F)ccc1Cl)S(C)(=O)=O | 1.0 | 2 | 12 | -11 | -4 | -1 | 3501
28 | CCN(CC)c1ccc2cc(C=O)c(=O)oc2c1 | 1.4 | 3 | -4 | -4 | 11 | 6 | 5116
29 | Nc1ncc(-c2ccc([N+](=O)[O-])cc2)cn1 | nt | nt | -5 | -9 | nt | nt | 7589
30 | COc1ccc(NC(=O)CS(=O)CC(=O)Nc2cccnc2)cc1 (stereo not drawn) | 2.2 | 3 | -8 | -9 | 9 | 5 | 3791
31 | CC(C)[C@H](NS(=O)(=O)c1ccccc1)C(=O)OCC(=O)NCc1ccc2c(c1)OCO2 | 4.4 | -1 | nt | -17 | 15 | 11 | 3766
32 | Clc1ccccc1OCCCCN1CCNCC1 | 5.6 | 3 | -3 | -20 | 15 | 6 | 4391
33 | CSc1ccccc1NC(=O)COc1ccc(Cl)cc1 | 5.7 | -3 | -9 | -15 | 2 | 4 | 10521
34 | Cc1ccc(NS(=O)(=O)c2ccc3[nH]c(=O)oc3c2)cc1Cl | -5.6 | 29 | nt | -10 | 1 | -2 | 3604
35 | Nc1nc2c(ncn2[C@H]2C[C@H](O)[C@@H](CO)O2)c(=O)[nH]1 | nt | nt | -7 | -7 | nt | nt | 4333
36 | Cc1c(C(=O)NCc2ccco2)oc2ccc(Br)cc12 | 0.7 | 3 | nt | 8 | -9 | 10 | 6872
37 | CCCCC(=O)Nc1sc2c(c1C(=O)OCC)CCC(C=O)=C2Cl | nt | nt | -16 | -3 | nt | nt | 21678*
38 | Cc1ccc2oc(C(=O)N(Cc3ccc(N(C)C)cc3)CC3CCCO3)c(C)c2c1 (stereo not drawn) | 2.1 | 21 | -3 | -13 | 3 | 1 | 5793
39 | Cn1c(=O)c2nnn(/N=C(\c3ccccc3)C3CC3)c2n(C)c1=O | nt | nt | -2 | -12 | nt | nt | 3368
40 | CCc1ccc(N2C(=O)/C(=C/c3cccs3)N(CC(=O)OC)C2=S)cc1 | -0.8 | 5 | 4 | -12 | 6 | 8 | 23041*
41 | C/C(CCC(C)C)=N\Nc1ccc(S(N)(=O)=O)cc1[N+](=O)[O-] | nt | nt | 0 | 2 | nt | nt | 3221
42 | CCOC(=O)Cc1csc(NC(=O)c2ccc(Cl)nc2)n1 | 25 | 1 | -5 | -10 | 0 | 16 | 9864
43 | Cc1noc(/C=C/c2ccc(-c3ccccc3Cl)o2)c1[N+](=O)[O-] | -11 | -4 | -1 | 1 | 4 | 6 | 6227
44 | O=C(O)c1cccc(NS(=O)(=O)/C=C/c2ccccc2)c1 | 6.6 | 8 | -11 | -17 | 9 | 15 | 19766*
45 | COc1cc(C2(c3ccc(O)c(OC)c3)C(=O)N(C)c3ccc(Br)cc32)ccc1O | 2.4 | -1 | -6 | -20 | 6 | 1 | 6508
46 | O=C(O)C1C2C=CC3(CN(Cc4ccccn4)C(=O)C13)O2 (stereo not drawn) | 5.0 | 4 | -15 | -8 | 20 | 12 | 4800
47 | CCN(CC)S(=O)(=O)c1ccc(Cl)c(C(=O)Nc2ccc(Cl)cc2[N+](=O)[O-])c1 | 14 | 4 | -1 | -16 | 0 | 2 | 9251
48 | CSCCC(NC(N)=O)C(=O)NCc1cccc(Cl)c1 (stereo not drawn) | 3.5 | 7 | -4 | -14 | nt | nt | 4687
49 | COc1ccc(OCCC(=O)NCc2ccccc2)cc1 | 1.5 | -1 | -11 | -27 | 6 | 5 | 8704
50 | Cc1cc(-c2n[nH]c(=S)n2N=Cc2ccc(C)s2)n[nH]1 | 8.3 | 7 | nt | nt | 5 | 8 | nt
51 | COCCCNC(=S)NNC(=O)c1ccc(C(C)(C)C)cc1 | 2.4 | 2 | -4 | -13 | 6 | 9 | 3186
52 | O=C(NC(=S)Nc1ccc2oc(=O)ccc2c1)c1ccccc1F | 8.9 | 1 | 4 | -40 | 6 | 4 | 5131
53 | COc1ccc(CNC(=O)C(=O)NCc2ccncc2)cc1 | 1.2 | 2 | -1 | -5 | -1 | -2 | 2453
54 | COCCNC(=O)c1c(N)n(CCCn2ccnc2)c2nc3ccccc3nc12 | 0.2 | 8 | 1 | -4 | 16 | 5 | 3835
55 | O=C1CC(c2ccccc2)CN1S(=O)(=O)c1ccccc1 (stereo not drawn) | 2.2 | 4 | -8 | 10 | nt | nt | 5584
56 | CCn1c2ccccc2c2cc(CN3CCN(S(=O)(=O)CC)CC3)ccc21 | 5.4 | -7 | 4 | nt | 8 | 4 | nt
57 | O=C(N/N=C/c1c(O)n(C2CCCCC2)c(=S)[nH]c1=O)c1ccccc1O | 77 | 92* | 4 | -22 | 8 | -8 | 5267
58 | O=C(c1ccc(Cl)cc1)N(Cc1ccco1)C1CCS(=O)(=O)C1 (stereo not drawn) | -13 | -6 | 2 | -1 | 2 | 8 | 5897
59 | Cc1ccc(Cl)cc1NC(=S)N(Cc1cccnc1)Cc1ccccc1Cl | -0.5 | -6 | nt | -20 | 3 | -4 | 4918
60 | COc1ccc(-c2nc(CS(=O)CC(=O)NCCc3ccc(OC)c(OC)c3)c(C)o2)cc1 (stereo not drawn) | 5.3 | 6 | 6 | -11 | 9 | 1 | 4220

Next section
entry | SMILES | Sa RN4220 lethal | Sa ugtP lethal | BJeLR lethal | PrP 5UTR inh | Mtb hypoxia rep | Mtb hypoxia rep growth | Autofluor counter
61 | O=C(Cn1ncc2c(=O)oc3ccccc3c21)NCCC1=CCCCC1 | 2.4 | 5 | -10 | -9 | nt | nt | 4005
62 | CCOC(=O)CC1C(=O)NCCN1C(=O)Nc1ccc(Cl)cc1 (stereo not drawn) | 2.3 | 1 | 4 | -17 | nt | nt | 2830
63 | O=C(Nc1ccccc1)N1CCc2c([nH]c3ccccc23)C1C(F)(F)F (stereo not drawn) | -3.8 | -11 | -1 | 7 | -5 | 2 | nt
64 | CCS(=O)(=O)c1nc(S(=O)(=O)c2ccc(Cl)cc2)c(N2CCC(C(N)=O)CC2)s1 | 0.6 | -3 | -3 | 0 | 1 | 2 | 6071
65 | COc1cc2c(C)nc3c(c(C)nn3-c3ccccc3)c2cc1OC | -7.5 | 19 | 2 | -14 | 16 | 8 | 3822
66 | O=C(C1=C(O)C(=O)N(CCCN2CCOCC2)C1c1ccccn1)c1cc2ccccc2o1 (stereo not drawn) | 7.1 | 2 | -6 | -15 | nt | nt | 4675
67 | CCOc1cc(-c2noc(CCCC(N)=O)n2)cc(Br)c1OC | 2.1 | 3 | 5 | 4 | 6 | 7 | 7941
68 | N#Cc1cccc(Nc2c3c(nc4ccccc24)CCC3)c1 | 1.2 | -3 | -2 | -8 | 4 | -8 | 3189
69 | C[C@@H]1COC(=O)[C@@H](CC(=O)OC(C)(C)C)C/C=C\C[C@@H](CC(=O)NCCO)C(=O)N1 | 6.5 | 2 | nt | 11 | 6 | 8 | 3601
70 | O=C(CN1CCCC1)Nc1ccc2c(c1)CCC2 | 2.5 | 3 | 2 | -32 | -9 | 8 | 3912
71 | COC(=O)C1C[C@@]2(O)C(O)C(O)C(O)CC2N1Cc1ccc(-c2ccccc2)cc1 (stereo partly drawn) | 7.9&3.6 | 0&0 | nt | nt | 1&0 | -2&4 | nt
72 | CC1CCCC(NC(=O)c2cc(-c3ccncc3)nc3ccccc23)C1C (stereo not drawn) | 4.7 | 11 | nt | -8 | 2 | -3 | 4591
73 | O=C(NNC(=O)c1cccc2ccccc12)c1ccco1 | 3.0 | -8 | 6 | -19 | -1 | -1 | 4002
74 | Cc1cccc(C)c1NC(=O)CC(NCCc1ccccc1)C(=O)O (stereo not drawn) | 2.2 | 8 | -10 | -23 | 1 | 5 | 2188
75 | Cc1ccccc1C(=O)NC1CCN(CC(=O)Nc2ccc3c(c2)OCO3)CC1 | 1.6 | 2 | 3 | -9 | 13 | 5 | 4013
76 | Cc1ccc(CNC(=O)COc2ccc(C)nc2[N+](=O)[O-])cc1 | 3.5 | -3 | 3 | -19 | 6 | 3 | 2726

High-throughput results as filed in PubChem.
